Screens (PubChem)
MT1-MMP act inh: blocks activation of human MT1-MMP; P50281; HT1080 RFP-PRO-GFP cells, GFP/RFP ratio fluorescence, overnight; percent of plate control window, DMSO zero; GFP/RFP ratio change, % at 20 µM; 360,000 tested, 0.061% active; AID 651647;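 active = GFP/RFP ratio change of at least 30% with cell ATP level not reduced by more than half and red fluorescence within 50% of control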; note: strong numbers were not always called active
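Test system: HT1080 cells expressing an RFP-PRO-GFP fluorescent reporter construct / Compound dosing: single-point 20 µM compound, 1% DMSO / Schedule: cells overnight before dosing, compound overnight, 37 °C, 5% CO2 / Evaluation: GFP/RFP fluorescence ratio / Control set: DMSO and RFP-L50D-GFP cell wells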
eIF4H inh: inhibitors of RNA binding by human eIF4H | Q15056 | eIF4H fluorescence polarization binding assay | inhibition, % at 35 µM | 290,000 tested, 0.94% active | AID 2012;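 active = 50% or more with normal probe brightness, or confirmed in later tests; about a fifth of its hits are not listed in these tables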;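 note: calls also rest on retests at 20 µM and on dose response follow-up; 0% = protein and probe with vehicle and 100% = probe without protein; strong numbers were not always called active; many hits fall short of the cut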
CSC inhib: cancer stem cell inhibition. cancer stem cell-like cells viability, luminescence. inhibition, % at 7.5 µM. 300,000 tested, 1.1% active;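 active = mean at 75% or more and at least half the replicates too; tested in HMLE shEcad cells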;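 note: 0% = median of negative and 100% = median of positive control wells; the first replicate is given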
Rce1 inh: blocks yeast Ras-converting enzyme; calls only; yeast membranes, quenched prenylated peptide cleavage fluorescence; AID 2563; 290,000 tested, 0.27% active;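 active = fall in fluorescence gain of 50% or more versus controls, with final raw signal at or below 3038400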;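 note: plate controls were neutral control wells for no effect and wells lacking membranes for full effect; tested at 10 µM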
Target sequence (Q03530 whole entry, looked up): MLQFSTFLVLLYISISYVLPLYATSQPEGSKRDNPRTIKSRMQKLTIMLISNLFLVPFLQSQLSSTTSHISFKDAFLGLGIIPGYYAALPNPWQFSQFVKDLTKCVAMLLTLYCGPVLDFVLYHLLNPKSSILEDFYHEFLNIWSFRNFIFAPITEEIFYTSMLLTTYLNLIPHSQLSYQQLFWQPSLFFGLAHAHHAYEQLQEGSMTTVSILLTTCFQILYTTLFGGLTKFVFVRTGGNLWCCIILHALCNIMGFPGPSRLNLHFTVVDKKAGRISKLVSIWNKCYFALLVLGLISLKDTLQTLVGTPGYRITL
Env fusion inh: blocks HIV Env-driven cell-cell fusion | HeLa-JRFL Env/CEM21 cell fusion, luciferase | inhibition, % at 12.3 µM | 360,000 tested, 1.1% active;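 active = mean replicate inhibition score of at least 50 and every replicate individually at or above 50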;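 note: 0% = plate neutral controls and 100% = maraviroc near 300 nM; one replicate is shown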
PABP polyA inh: blocks human PABP binding to poly(A) RNA; inhibition, % at 35 µM; P11940; 290,000 tested, 1% active; fluorescence polarization;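 active = 50% or more with normal probe brightness, or confirmed in later tests; about a fifth of its hits are not listed in these tables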;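 note: calls also rest on retests at 20 µM and on dose response follow-up; controls were probe without protein and protein plus probe with vehicle; some compounds called inactive have numbers as strong as hits; many hits fall short of the cut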
Target sequence (P11940 whole entry, looked up): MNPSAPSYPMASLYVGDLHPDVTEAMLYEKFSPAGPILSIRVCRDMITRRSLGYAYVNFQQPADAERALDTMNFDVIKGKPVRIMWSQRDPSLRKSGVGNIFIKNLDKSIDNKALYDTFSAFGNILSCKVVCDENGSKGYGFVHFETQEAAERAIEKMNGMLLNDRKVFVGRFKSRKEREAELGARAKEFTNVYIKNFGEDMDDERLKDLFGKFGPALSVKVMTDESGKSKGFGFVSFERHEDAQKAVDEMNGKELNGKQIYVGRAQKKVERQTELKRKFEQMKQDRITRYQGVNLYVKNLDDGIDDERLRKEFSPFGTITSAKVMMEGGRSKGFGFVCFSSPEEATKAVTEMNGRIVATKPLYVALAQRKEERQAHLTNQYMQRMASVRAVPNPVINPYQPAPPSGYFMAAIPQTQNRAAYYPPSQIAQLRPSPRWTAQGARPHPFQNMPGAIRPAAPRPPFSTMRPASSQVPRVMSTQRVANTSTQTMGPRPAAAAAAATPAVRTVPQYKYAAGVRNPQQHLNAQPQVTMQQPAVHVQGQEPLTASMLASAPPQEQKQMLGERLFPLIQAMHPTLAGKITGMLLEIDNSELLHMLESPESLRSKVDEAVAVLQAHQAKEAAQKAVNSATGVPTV
UUG fidelity: alters start codon recognition fidelity in yeast; AID 602363; activity score, % at 18.7 µM; S. cerevisiae UUG-firefly luciferase reporter, luminescence/redox ratio; 350,000 tested, 0.13% active;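 active = replicate mean at a twofold rise or more, about +100% in these data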;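 note: firefly luciferase made from a UUG start codon reports start codon fidelity; reporter light over untreated wells divided by growth signal over untreated wells; some hits fall short of that in this replicate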
eIF4H inh retest: further read-out of eIF4H inh, marked with its call; inhibition, %; compound at 20 µM; confirmation average;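 mean of two retest wells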
PABP polyA inh retest: recorded beside PABP polyA inh, whose call it bears; inhibition, %; compound at 20 µM; confirmation repeats;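 mean of two retest wells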
MT1-MMP act inh RFP: recorded beside MT1-MMP act inh, whose call it bears; RFP signal change, %; measured here: RFP expression control read;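 0 = vehicle wells; hits needed this value within 50% of zero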
Active calls of the source: *; i = inactive; · = no result given. These rows are one share of the data; the hit share may differ from the screen's.

SMILES | MT1-MMP act inh | MT1-MMP act inh RFP | eIF4H inh | CSC inhib | Rce1 inh | Env fusion inh | PABP polyA inh | UUG fidelity | others
O=C(OCC(=O)c1c[nH]c2ccccc12)c1cccc([N+](=O)[O-])c1 | -7 | -2 | · | · | · | -16 | · | -7
O=C(C[n+]1ccc(C(=O)NCc2ccccc2)cc1)c1ccc(Cl)cc1 | 3 | 1 | -2 | 2 | i | 13 | -2 | -32
CN(Cc1ccccc1)S(=O)(=O)c1ccc(S(=O)(=O)N(Cc2ccc(F)cc2)C2CCCC2)cc1 | 0 | -5 | -11 | 13 | i | 58* | -10 | -9
COc1c(N2CCN(C(=S)Nc3ccccc3F)C(C)C2)c(F)cc2c(=O)c(C(=O)O)cn(C3CC3)c12 (stereo unspecified) | -23 | -7 | -10 | 5 | i | 8 | -2 | ·
N#CCCN(Cc1cccnc1)C(=S)NCc1ccco1 | 1 | 5 | 14 | -16 | · | -5 | -6 | ·
CSc1cnc2c(=O)[nH]c(=O)n(C)c2n1 | 2 | -1 | -1 | -6 | i | · | 6 | ·
CNS(=O)(=O)c1cccc(C(=O)OCC(=O)c2cc3ccccc3o2)c1 | -3 | 6 | -2 | -19 | i | -5 | 66 | · | eIF4H inh retest=-3;PABP polyA inh retest=6
Brc1ccccc1OCCCN1CCCC1 | 5 | 9 | 8 | 6 | i | -36 | 13 | -7
Cc1ccc(NC(=O)CN2C(=O)NC(C)(CC(C)C)C2=O)c(Br)c1 (stereo unspecified) | -1 | 2 | · | -7 | · | -3 | · | -11
COc1cc(C2CC(=O)c3cnc(NC(=O)COc4ccccc4)nc3C2)cc(OC)c1OC (stereo unspecified) | -3 | 0 | 6 | -7 | i | -105 | 7 | -5
C=CCSc1nc2ccccc2c(=O)n1Cc1ccccc1 | 3 | -2 | -2 | 3 | · | 1 | 22 | ·
CC(=O)N=c1sc(C(C)(C)C)c(C)n1C | 1 | 4 | -2 | · | i | · | 2 | -5
COc1ccc2oc(=N)c(C(=O)Nc3ccc(F)cc3)cc2c1 | -4 | -2 | -2 | -4 | i | -57 | 7 | ·
CS(=O)(=O)N1CCN(c2ccc(NC(=O)COc3ccccc3)cc2)CC1 | 0 | 0 | -8 | -13 | i | 4 | 10 | -8
Nc1c(C(=O)c2ccccc2)oc2ccccc12 | -1 | 3 | 2 | -6 | i | -299 | -2 | -19
CC(C(=O)N1CCCCCC1)N(c1ccc(Cl)cc1)S(C)(=O)=O (stereo unspecified) | 0 | -7 | 1 | -20 | · | 2 | -6 | -10
Cc1cccc(CN(C(=S)Nc2c(C)cccc2C)c2cccnc2)c1 | -3 | -4 | 46 | -8 | i | 2 | -7 | ·
CCN1C(=O)c2ccc(C(=O)Nc3c(C)cc(C)cc3C)cc2C1=O | -2 | -4 | 0 | -15 | i | 14 | -1 | -11
CC(=NO)C1CCC2C3CCC4=CC(=NO)CCC4(C)C3C(O)CC12C (stereo unspecified) | -2 | -4 | · | · | · | -93 | · | -32
COc1ccccc1N1CCN(c2ncnc3c2oc2ccccc23)CC1 | -5 | -4 | -7 | 45 | i | · | 10 | ·
O=C(O)CCn1cc(/C=N/O)c(-c2cccc([N+](=O)[O-])c2)n1 | 1 | 4 | 1 | -15 | i | 11 | -10 | ·
C=CCNC(=S)N1CCC(C(=O)c2ccc(C)cc2)CC1 | -2 | -7 | -5 | · | i | 12 | -2 | -24
CC(C)CNC(=O)c1cccc(NC(=O)Cc2ccc(Br)cc2)c1 | 0 | -7 | -6 | -7 | i | -16 | 3 | -15
CCC(C(=O)NC(C)c1ccccc1)C(=O)NC(C)c1ccccc1 (stereo unspecified) | 3 | 1 | -13 | -20 | i | 22 | -2 | -15
CCOc1ccc(NC(=O)CCS(=O)(=O)c2ccc(Br)cc2)cc1 | 1 | 1 | 76* | -8 | i | -3 | 22 | -5 | eIF4H inh retest=96*;PABP polyA inh retest=31

4 compounds picked at random from the list so far, as already listed:
SMILES | MT1-MMP act inh | MT1-MMP act inh RFP | eIF4H inh | CSC inhib | Rce1 inh | Env fusion inh | PABP polyA inh | UUG fidelity | others
CC(=NO)C1CCC2C3CCC4=CC(=NO)CCC4(C)C3C(O)CC12C (stereo unspecified) | -2 | -4 | · | · | · | -93 | · | -32
C=CCSc1nc2ccccc2c(=O)n1Cc1ccccc1 | 3 | -2 | -2 | 3 | · | 1 | 22 | ·
CCC(C(=O)NC(C)c1ccccc1)C(=O)NC(C)c1ccccc1 (stereo unspecified) | 3 | 1 | -13 | -20 | i | 22 | -2 | -15
Nc1c(C(=O)c2ccccc2)oc2ccccc12 | -1 | 3 | 2 | -6 | i | -299 | -2 | -19

Other results:
SMILES | MT1-MMP act inh | MT1-MMP act inh RFP | eIF4H inh | CSC inhib | Rce1 inh | Env fusion inh | PABP polyA inh | UUG fidelity | others
COc1ccc(N2C(=O)CCC(C(C)=O)=C2C)cc1 | 5 | 1 | -2 | -4 | i | -17 | -9 | -6
CC1CCCCC1NC(=O)COc1cccnc1[N+](=O)[O-] (stereo unspecified) | -1 | 3 | · | -5 | · | · | · | -12
CCOc1ccc(C(=O)/C=C/c2ccc(SC)cc2)cc1 | -3 | -3 | 5 | 23 | i | · | -9 | -7
CCOc1ccc(NS(=O)(=O)c2cc(NC(=O)c3cccc(C)c3)ccc2Cl)cc1 | -25 | -33 | 4 | 51 | i | 6 | 9 | ·
O=C(NC1CCCC1)C(c1cccnc1)N(CCc1ccccc1)C(=O)c1ccco1 (stereo unspecified) | 4 | 4 | -3 | 10 | i | 15 | 7 | ·
Cc1ccc(NC2c3ncccc3C(=O)N2C2CCCCC2)cc1C (stereo unspecified) | 0 | 3 | -18 | -3 | i | 16 | -2 | -10
CN(CC(=O)Nc1ccccc1Br)C(=O)CCCSc1nc2ccccc2[nH]1 | -1 | 0 | · | -3 | i | · | · | -4
Nc1ccc(Oc2ccc([N+](=O)[O-])cc2[N+](=O)[O-])cc1 | 6 | 0 | 3 | -4 | i | · | -9 | 8
CC(C)(C)NC(=O)/C(=C\c1ccco1)NC(=O)c1cccs1 | -5 | 0 | 66 | -14 | i | · | -4 | -18 | eIF4H inh retest=-2;PABP polyA inh retest=4
CC1CCC(NC(=O)CN2CCN(S(=O)(=O)c3cccs3)CC2)CC1 (stereo unspecified) | 5 | 0 | · | · | · | -26 | · | -7
O=C(c1ccco1)N1CCN(Cc2nnc(-c3ccccc3)o2)CC1 | 3 | 2 | -5 | -21 | i | -9 | 2 | -17
C=CCn1c(=O)c2c(nc3n2CC(C)CN3Cc2ccccc2)n(C)c1=O (stereo unspecified) | -5 | 1 | 4 | -3 | i | 9 | -2 | -7
COc1cc(C(=O)O)c2c(c1C)OC(=O)c1c(C)cc(O)c(C=O)c1O2 | 3 | 5 | · | -3 | · | · | · | -17
O=c1cc(O)nc(SCc2ccccc2)[nH]1 | 1 | 7 | -6 | -12 | i | 26 | 9 | -5
CCOC(=O)c1csc(NC(=O)c2cc(OC)c(OC)c(OC)c2)n1 | -49 | -39 | 6 | 1 | i | · | 0 | -6
CCN(CC)c1ccc(C(=C2C=CC(=[N+](CC)CC)C=C2)c2ccc(N(CC)CC)cc2)cc1 | 143* | 44* | · | · | · | 62* | · | -63
O=C(Oc1cc(=O)n2ccccc2n1)c1ccccc1 | 4 | 7 | 4 | -13 | i | · | 6 | -6
Cc1ccc(C)c2sc(N3CCN(C(=O)c4ccc([N+](=O)[O-])o4)CC3)nc12 | 3 | -16 | · | 24 | i | -9 | · | -12
COC(=O)N/N=C/c1ccccc1OCc1ccccc1 | -6 | -1 | -3 | 2 | i | -2 | 3 | -13
Cc1cc2c(C)nc(N/N=C/c3ccc(F)cc3)nc2o1 | 0 | 2 | -3 | -8 | i | 16 | 5 | ·
CN(CC(=O)Nc1cccc(F)c1)C(=O)CCCN1C(=O)c2cccc3cccc(c23)C1=O | 2 | -3 | · | -5 | i | 21 | · | -14
Cc1ccc(-n2c(P(C)(=O)O)nc3ccccc32)cc1 | 2 | 6 | -1 | -1 | i | -6 | -2 | -17
CC(=O)Nc1ccc(N2CCCCC2)c(C(=O)Nc2cccc(C)c2)c1 | -1 | 0 | -4 | -1 | i | 43 | -9 | 4
COCCNC(=O)CSc1nc(-c2ccc(OC)c(OC)c2)cc(C(F)(F)F)n1 | 1 | 1 | -2 | -12 | i | · | -6 | ·
COc1ccc(NC(=O)C(C)N=C2NS(=O)(=O)c3ccccc32)cc1S(N)(=O)=O (stereo unspecified) | -5 | 1 | · | · | · | 0 | · | -7

(further entries)
SMILES | MT1-MMP act inh | MT1-MMP act inh RFP | eIF4H inh | CSC inhib | Rce1 inh | Env fusion inh | PABP polyA inh | UUG fidelity | others
COC(=O)c1ccc2c(=O)n(CCCN3CCCC3=O)c(=S)[nH]c2c1 | 14 | 7 | -2 | 6 | i | · | 2 | -7
CC(OC(=O)CNS(=O)(=O)c1ccc(C#N)cc1)C(=O)Nc1ccc(Cl)cn1 (stereo unspecified) | -2 | 4 | · | -3 | i | -9 | · | ·
C#CCOCCOCCOCCNc1nc(N2CCN(C(=O)CCCCCCCCCCNC(=O)[C@@H](CCC(=O)O)n3cc(CCCCCN)nn3)CC2)nc(N2CCN(C(=O)CCCCCCCCCCNC(=O)[C@@H](CCC(=O)O)n3cc(CCCCCN)nn3)CC2)n1 | 8 | 6 | · | 3 | · | 12 | · | 13
Clc1ccccc1Cc1noc(CN2CCN3CCCC3C2)n1 (stereo unspecified) | -2 | 1 | 26 | -8 | i | -7 | -11 | ·
COc1ccc(CCN2CC(C(=O)N(C)CCOc3ccccc3)CCC2=O)cc1 (stereo unspecified) | 1 | 1 | · | -11 | i | -9 | · | -11
O=C(CNc1cccc(C(F)(F)F)c1)N/N=C/c1cn(-c2ccccc2)nc1-c1ccccc1 | 6 | -1 | -9 | 53 | i | 27 | -3 | ·
COc1ccccc1CNC(=O)c1cc(S(=O)(=O)N2CCCCC2)c[nH]1 | 1 | -3 | -12 | 16 | i | -5 | -6 | -17
CC(=O)c1sc(=S)n(-c2ccccc2)c1C | -5 | 2 | -6 | 3 | i | -1 | -1 | -22
COCCCNC(=S)Nc1ccc2c(c1)OCCO2 | -24 | -9 | -4 | -8 | i | -1 | 3 | -27
COc1ccc(-n2ccsc2=S)cc1 | 0 | 1 | -2 | 11 | · | · | 2 | -13
COc1ccccc1N1CCN(C(=O)c2cc(C)oc2C)CC1 | 1 | 5 | 0 | -7 | i | -1 | 4 | ·
CCOC(=O)CSCC(=O)Nc1ccc(S(=O)(=O)N2CCCCC2)cc1 | 5 | 3 | -3 | -1 | i | 28 | -9 | -14
CCOC(=O)c1ccc(N2CN(CC)CNC2=S)cc1 | 4 | 3 | -11 | -7 | i | -65 | -1 | -20
CC(C)n1c(=O)c2ccccc2n1Cc1cn(Cc2ccccc2)nn1 | 0 | 2 | · | · | · | 3 | · | -13
COc1ccc(CC(=O)OCC(=O)c2ccc(F)cc2)cc1 | 6 | 7 | · | -16 | · | 3 | · | 5
Cc1ccc(-n2nnnc2CSc2nnc(-c3ccc(O)cc3)o2)cc1 | -5 | -5 | 8 | 12 | i | -4 | 8 | -8
CCc1ccccc1N1C(=O)CC(N2CCc3ccccc32)C1=O (stereo unspecified) | -3 | 2 | -9 | 3 | i | 4 | -4 | ·
Cc1ccc(S(=O)(=O)NCc2ccncc2)c(C)c1C | -3 | -27 | 8 | -11 | i | 55* | 0 | ·
COc1cc(S(=O)(=O)N(Cc2cccnc2)Cc2ccco2)ccc1-n1cnnn1 | -2 | 0 | 15 | -6 | i | · | 0 | 32
COc1ccc(-c2ccc(NS(=O)(=O)c3cc([N+](=O)[O-])c(C)c([N+](=O)[O-])c3)cc2)nn1 | 1 | -1 | · | 3 | i | 5 | · | -28
O=C(Nc1ccccc1C(=O)O)c1ccc2ccccc2n1 | 1 | 7 | 3 | -2 | i | · | 9 | ·
